Screening results deposited in PubChem BioAssay by National Center for Advancing Translational Sciences (NCATS).
VACV Venus inh: qHTS for Stage-Specific Inhibitors of Vaccinia Orthopoxvirus: Venus Reporter Primary qHTS. Potency, µM (doses to about 36.5 µM), without a hit: at the highest dose activity change, negative = inhibition, actives largely listed as inhibitors. Vaccinia virus Venus reporter expression, fluorescence. AID 720580, 2013. 0.46% of 330,000 active; active means well fitted inhibition curve with a large enough effect; inconclusive means small, poorly fitted or top-dose-only effect; inactive means no such curve, though single readings can be large or run the other way; tested in A549 cells; further: nearly all actives have a fitted effect of over 30% in size; inactives centre near -10
Vaccinia mCherry: qHTS for Stage-Specific Inhibitors of Vaccinia Orthopoxvirus: mCherry Reporter Primary qHTS | Vaccinia virus mCherry reporter infection, fluorescence; about a quarter of the inactives have no number | Potency, µM (titrated, usually from 36.5 µM), for the others: at the highest dose activity change, negative = inhibition, usual class: inhibitors | 0.63% of 310,000 active; active = well fitted inhibition curve with a large enough effect; inconclusive = small, poorly fitted or top-dose-only effect; inactive = no such curve, though single readings can be large or run the other way; tested in A549 cells; further: nearly all actives have a fitted effect of over 35% in size; inactives centre near -10
Active calls of the source: *; i = inactive; ? = inconclusive; . = not tested or not shown; & = joins results of further samples; [ ] = dose if it differs, or a comment. On the % scale 0 is the no-effect control and ±100 the full control effect; potency means the concentration at half of the fitted maximal effect. Rows were taken by chance; about 0.87% have a hit in one of these screens.

SMILES	VACV Venus inh	Vaccinia mCherry
CCOC(=O)C1CCCN(S(=O)(=O)c2ccc3ccccc3c2)C1 (centres undefined)	-7%	-4%
O=C(c1ccco1)N1CCN(C(=O)C(Sc2ccccc2)c2ccccc2)CC1 (centres undefined)	-17%	-24%
CCCNC(=O)COc1ccc(-c2nn(C)c(=O)c3ccccc23)cc1	?	?
O=C(NCc1csc(-c2cccs2)n1)Nc1ccc(C(F)(F)F)cc1	-12%	-9%
O=C(CSc1nnc2n1CCCN2)c1ccccc1	-12%	i
CCCCNC(=O)CN1C(=O)c2c(c3ccccc3n2C)C1c1ccc(OC)cc1 (centres undefined)	-4%	-14%
CN(C)C(=O)CCc1ccc2c3c([nH]c2c1)[C@]1(C)[C@@H](C(=O)N2CCCCC2)C[C@H](CC(=O)NCc2cccc(C(F)(F)F)c2)C(=O)N1CC3	-25%	-29%
Cc1nn(Cc2ccccc2)c(N)c1C#N	-19%	.
Cc1cnc(C(=O)Nc2ccc(N3CCOCC3)cc2)cn1	-5%	i
Cc1nc(N2CCOCC2)nc2c1CCC2	-23%	i
O=C(N/N=C/c1ccccn1)c1ccc(Cl)cc1	-21%	3.2µM*
CCCn1c(SCC(=O)NC2CC2)nnc1-c1cccs1	-12%	i
O=C(Nc1ccc(F)cc1)c1ccc(S(=O)(=O)N2CCCC2)cc1	?	-20%
O=C(NCC1CCCO1)Nc1ccc(Cl)cc1 (centres undefined)	-13%	.
O=S(=O)(Nc1ccc(N2CCCCC2)cc1)c1ccc(F)cc1F	-21%	-25%
CC(=O)c1ccc(NC(=O)CSc2nc(=O)n(Cc3ccncc3)c3c2CCC3)cc1	2%	-11%
COc1ccc(NC(=O)C2CCC(CNc3c(N4CCC(C)CC4)c(=O)c3=O)CC2)cc1OC (centres undefined)	4%&-10%	-9%
CCc1ccc(N2CC34C=CC(O3)C(C(=O)OC)C4C2=O)cc1 (centres undefined)	-2%	-5%
CCCCC(=O)Nc1ccc(N2CCCC2)cc1	-5%	i
COc1ccc(CNC(=O)COc2ccc(S(=O)(=O)NC(C)C)cc2)cc1	-15%	i

Three of the compounds above, with values under each structure.
Screens in order: VACV Venus inh, Vaccinia mCherry
> O=C(N/N=C/c1ccccn1)c1ccc(Cl)cc1
  -21%, 3.2µM*
> CCCn1c(SCC(=O)NC2CC2)nnc1-c1cccs1
  -12%, i
> O=C(Nc1ccc(F)cc1)c1ccc(S(=O)(=O)N2CCCC2)cc1
  ?, -20%

Single records, from the list above.
`O=C(c1ccco1)N1CCN(C(=O)C(Sc2ccccc2)c2ccccc2)CC1` (centres undefined) reads VACV Venus inh: -17%; Vaccinia mCherry: -24%
`CCCCNC(=O)CN1C(=O)c2c(c3ccccc3n2C)C1c1ccc(OC)cc1` (centres undefined) reads VACV Venus inh: -4%; Vaccinia mCherry: -14%

Next section.
SMILES	VACV Venus inh	Vaccinia mCherry
CC(O)(COc1ccccc1)c1ccc2c(c1)CN(Cc1ccc3nsnc3c1)CCO2 (centres undefined)	6%	-12%
Fc1ccc2nc(N3CCCCC3)sc2c1	-11%	i
CCOC(=O)Cn1c(=O)oc2cc(S(=O)(=O)N3CCN(c4cccc(C)c4C)CC3)ccc21	-11%	-7%
COCCC1CCCCN1C(=O)c1ccc2nc(Cc3ccccc3F)oc2c1 (centres undefined)	-16%	-27%
Cc1ccc(S(=O)(=O)Nc2ccc(NC(=O)CN3CCCCC3)cc2)cc1	-16%	.
COc1ccc(S(=O)(=O)N2CCN(Cc3ccccc3[N+](=O)[O-])CC2)cc1	8%	i
O=C(NCC1CCCO1)/C(=C\c1ccco1)NC(=O)c1ccccc1 (centres undefined)	-5%	-13%
Cc1ccc(-c2nc3cc(C)c(Br)c(C)n3c2CC(C)(C)C)cc1	7%	0%
Cc1ccc(S(=O)(=O)NCCC(=O)Nc2nccs2)cc1	-12%	-16%
Cc1cccc(N2CCN(S(=O)(=O)c3ccc4c(c3)C(C(C)C)C(=O)N4)CC2)c1C (centres undefined)	-22%	?
CC(=O)Oc1cc2c(cc1Cl)C1(CC(c3ccccc3Cl)O2)CC(C)(C)NC(=S)N1 (centres undefined)	?	-15%
CCOc1cc(C(=S)N2CCN(C)CC2)ccc1OCC(=O)N1CCCC1	-11%	i
Cc1cc(C(F)F)n2nc(C(=O)Nc3sc4c(c3C#N)CCC4)nc2n1	-20%	i
CC1CCCN(C(=O)c2ccc3c(c2)OCO3)C1 (centres undefined)	-17%	i
CC1Cc2ccccc2N1C(=O)CSc1nnc(-c2ccc(S(=O)(=O)N3CCOCC3)cc2)n1C (centres undefined)	-23%	-21%
Cc1ccc2c(c1)c(=O)c(C(=O)c1ccncc1)cn2CC(=O)Nc1ccccc1Cl	-7%[7.34 µM]	-12%[7.34 µM]
CCOC(=O)CC1c2ccccc2-n2nncc2CN1CC1CCCCC1 (centres undefined)	-9%	-11%
COC(=O)c1cc(C)sc1NC(=O)c1cccnc1	2%	-12%
O=C(N/N=C/c1cccc2ccccc12)c1ccccc1Cl	-25%	0%
CC1CCCN(CCCOc2ccc([N+](=O)[O-])cc2)C1 (centres undefined)	-1%	-13%
COC(=O)c1nc(N)sc1C	-19%	i
Cc1ccn2c(=O)nc(SCC(=O)NC3CCCCC3)nc2c1	-6%	-11%
CCOc1ccc(-c2cc(C(=O)NCc3ccc(C)cc3)c3ccccc3n2)cc1	-17%	-14%
Cc1ccc(C)c(N2CCN(C(=O)c3ccc(CS(=O)(=O)c4ccc(Br)cc4)o3)CC2)c1	-7%	-3%
Cc1ccc(-c2csc3ncnc(SCC(=O)NCc4ccc5c(c4)OCO5)c23)cc1	-18%	-4%
CC[n+]1ccc(/C=C/c2ccc(N(C)C)cc2)c2ccccc21	.	i
Cc1c(Cl)c([N+](=O)[O-])nn1CCCC(=O)Nc1cc(Cl)ccc1Cl	-18%	-19%
Cc1cccc(Nc2nc(-c3ccc4c(c3)OCCO4)cs2)c1	-18%	-25%
C=CCSc1nc2c(C(=O)OCC)nnn2c2ccccc12	-11%	-8%
COc1ccccc1N(CC(=O)Nc1ccccc1C(=O)N1CCCC1)S(C)(=O)=O	-9%	i
COc1ccc(C=C2C(=O)N(C)C(=O)N(C)C2=O)cc1COc1ccc(NC(C)=O)cc1	-3%	i
CC(C(=O)Nc1nc2ccccc2[nH]1)N1C(=O)C2CC=CCC2C1=O (centres undefined)	-9%	-10%
CCCCN(C(=O)c1ccc(S(=O)(=O)N2CCOCC2)cc1)C1CCS(=O)(=O)C1 (centres undefined)	-7%	i
O=C(NC(Cc1c[nH]c2ccccc12)C(=O)O)c1cccc(S(=O)(=O)N2CCCCC2)c1 (centres undefined)	-17%	-17%
CCc1noc(C)c1C(=O)Nc1ccccc1N1CCOCC1	0%	-9%
COc1cccc(OCCn2cc(C(=O)c3ccco3)c3ccccc32)c1	-11%	-23%
CC(Sc1nc(N(C)C)nc(N2CCOCC2)n1)C(=O)Nc1ccccc1 (centres undefined)	0%	.
CCC(C)(C)NC(=O)CN(CC1CCCO1)C(=O)CNS(=O)(=O)c1ccccc1 (centres undefined)	-2%	-1%
O=C1C2=C(CCCC2)C(=O)N1c1cccc(OCCBr)c1	-11%	-18%
CCOC(=O)c1ccccc1NC(=O)c1cccc(F)c1	-1%	.
COc1ccc(C/C(N)=N/OC(=O)CCc2ccccc2)cc1	-1%	5%
Cc1ccc(S(=O)(=O)NCCC(=O)N2CCC(Cc3ccccc3)CC2)cc1	-24%	-7%
Cc1ccc(C(=O)OCC(=O)NC(C)c2ccccc2)s1 (centres undefined)	6%	-15%
COc1cc(CNn2cnnc2)ccc1OCC(=O)NC(C)(C)C	1%	.
COc1ccc(C)cc1N(C(=O)CNC(=O)c1ccco1)C(C(=O)NC1CCCC1)c1cccnc1 (centres undefined)	-6%	i
COc1ccc(NC(=O)Nc2ccc(C(=O)N3CCOCC3)cc2)cc1	-7%	-13%
ClCc1c2ccccc2cc2ccccc12	-10%	-3%
O=C(O)C1CCCN(C(=O)NCc2ccccc2)C1 (centres undefined)	-7%	-13%
Cc1cc(C(=O)Nc2cccc(O)c2)c(C)o1	-2%	-17%
COc1cc(NC(=S)NCCC(c2ccccc2)c2ccccc2)c(OC)cc1Cl	?	?
O=C1CCCc2ccccc2N1Cc1ccc(Cl)cc1Cl	?	.
CNC(=O)c1sc2ncccc2c1-n1cccc1	7%	7%
COc1ccc(C(CNC(=O)c2cc3ccccc3o2)N2CCCCC2)cc1 (centres undefined)	-5%	i
CCn1c(SCc2nc(N)nc(N3CCCCC3)n2)nc2c1c(=O)n(C)c(=O)n2C	-13%	-16%
CCOc1ccc(N2CC(C(=O)Nc3ccc4c(c3)OCCO4)CC2=O)cc1 (centres undefined)	-9%	2%
COc1cc(NC(=O)COc2ccccc2)c(OC)cc1NC(C)=O	-15%	-5%
CNC[C@@H](C)NC[C@@H](Cc1ccccc1)NCCc1ccccc1	-18%	-12%
COC(=O)C1=C(C)N(Cc2ccco2)C(=O)N[C@@H]1c1ccccc1	-20%	i
Cc1ccc(Nc2nc3ccccc3nc2-n2nc(C)cc2C)c(Cl)c1	-13%	-8%
CN1CCCN(C(=O)CC2(CC(=O)O)CCCC2)CC1	-3%	-13%
New compounds follow.
SMILES	VACV Venus inh	Vaccinia mCherry
Cc1ccc(CNC(=O)COc2ccccc2-c2ccccc2)cc1	-21%	-28%
COc1ccc(C(=O)CNc2ccccc2C#N)cc1	-4%	-8%
CN(C)c1ccc(C(=S)N2CCN(C(=S)Nc3cccc4ccccc34)CC2)cc1	11%	-8%
Cc1ccc(C(=O)N2CCCC(CCC(=O)N3CCN(c4ccccn4)CC3)C2)s1 (centres undefined)	-17%	-1%
CCCOC(=O)CSc1nnc(-c2cc(OC)c(OC)c(OC)c2)o1	-10%	-19%
O=C(O)c1cc(OCc2ccccc2)cc(OCc2ccccc2)c1	-6%	i
O=C(NC1CCCCC1)C1Cc2ccccc2CN1S(=O)(=O)c1ccc(F)cc1 (centres undefined)	0%	-15%
CCOC(=O)/C=C1\SCC(=O)N1CC(=O)NC12CC3CC(CC(C3)C1)C2	50%[activator]	57%[activator]
COC(=O)c1ccccc1NC(=O)c1cnn2cccnc12	-11%	i
O=C(CNC(=O)OCc1ccccc1)NC1CCCCCCC1	-10%	i
CCOC(=O)c1cc(-c2ccco2)nn1-c1ccc(C)cc1	7%	-1%
Cc1ccc(NC(=O)CN(C)C(=O)CSc2ncc(C(F)(F)F)cc2Cl)cc1	-7%	3%
CC(C)NC(=O)N(C)C[C@H]1OCc2cnnn2CCCC(=O)N([C@H](C)CO)C[C@H]1C	3%	-3%
CCCC(=O)Nc1cc(C)c(O)c(-c2nc3ncccc3o2)c1	-4%	-12%
Cc1ccc(NC(=O)Cc2ncc(C(F)(F)F)cc2Cl)cc1Cl	-23%	.
COc1cccc(CC2(CO)CCN(S(=O)(=O)c3ccc(OC)cc3OC)CC2)c1	-26%	-19%
CCN(CC)CCCNC(=O)CSc1nc(-c2ccc(F)cc2)cc(C(F)(F)F)n1	-18%	-2%
CCN(CC)CCn1c(NCc2cc(OC)ccc2OC)nc2ccccc21	-13%	-1%
Cc1onc(-c2ccccc2)c1-c1nc2ccccc2c(=O)o1	?	-20%
COCc1ccc(C(=O)Nc2ccccc2C(=O)NCc2cccnc2)cc1	-6%	2%
O=C(NCc1cnc2ccccn12)C1CCC(=O)N(Cc2cccc(F)c2)C1 (centres undefined)	-4%	-5%
CC(Nc1ccc(Cl)c(Cl)c1)C(=O)NN (centres undefined)	-15%	-16%
O=C(c1noc2c1CCCC2)N1CCOc2ccc(CN3CCN(c4ccccn4)CC3)cc2C1	-5%	-12%
CCOc1ccccc1N(CC(=O)NCCc1ccc(OC)cc1)S(=O)(=O)c1ccc(C)cc1	?	?
COc1cccc(NC(=O)Cn2c(=O)n(-c3cccc(OC)c3)c(=O)c3c4c(sc32)CCCC4)c1	-6%	-17%
CC(=O)Nc1ccc(S(=O)(=O)NC2(C(F)(F)F)C(=O)Nc3c2c(=O)[nH]c(=O)n3-c2ccc(C)c(C)c2)cc1 (centres undefined)	11%	6%
CSc1cc(-c2ccccc2)n(C)c(=O)c1C#N	-26%	?
COc1ccc(/C=N\N=C2/SC(CC(=O)O)C(=O)N2c2ccc(O)cc2)cc1 (centres undefined)	1%	-6%
Cc1nn(S(=O)(=O)c2ccc(F)cc2)c(C)c1S(=O)(=O)N1CCC(C)CC1	-5%	-14%
Cc1ccc(S(=O)(=O)N(C)c2ccc(C(=O)N3CCOCC3)cc2)cc1	-13%	-15%
O=C(Cn1ncc2c3ccccc3n(Cc3cccc(Cl)c3)c2c1=O)NC1CCCCCC1	-26%	?
COc1cc(C(=O)NCc2nnc(SCC(=O)NCc3ccccc3)o2)cc(OC)c1OC	-5%	i
Nc1ccc(N=Nc2ccccc2)cc1[N+](=O)[O-]	7%	?

Fetched by compound from the list above (6):
SMILES	VACV Venus inh	Vaccinia mCherry
Nc1ccc(N=Nc2ccccc2)cc1[N+](=O)[O-]	7%	?
O=C(NCc1cnc2ccccn12)C1CCC(=O)N(Cc2cccc(F)c2)C1 (centres undefined)	-4%	-5%
Cc1ccc(S(=O)(=O)N(C)c2ccc(C(=O)N3CCOCC3)cc2)cc1	-13%	-15%
CCOc1ccccc1N(CC(=O)NCCc1ccc(OC)cc1)S(=O)(=O)c1ccc(C)cc1	?	?
CSc1cc(-c2ccccc2)n(C)c(=O)c1C#N	-26%	?
COc1ccc(/C=N\N=C2/SC(CC(=O)O)C(=O)N2c2ccc(O)cc2)cc1 (centres undefined)	1%	-6%
